From PubChem BioAssay
Sfp PPTase inh – Sfp phosphopantetheinyl transferase inhibition. Q9F4F7. Potency, µM, for inactives: max response, negative = inhibition, most hits filed as inhibitors. AID 1490. Biochemical Sfp PPTase activity, qHTS. hit rate 3.5% among 310,000; active = well fitted inhibition curve with a large enough effect; inconclusive = small, poorly fitted or top-dose-only effect, or another doubt; inactive = no such curve, though single readings can be large or run the other way;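 also: the enzyme is Sfp with the accession as filed and its product quenches rhodamine fluorescence; potency is read from the fitted curve at half-maximal effect; 0% = enzyme reaction without inhibitor and -100% = no enzyme wells; top concentration of the series not given in the record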
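After 15 min at room temperature with compound, 15 nM Sfp received 5 uM rhodamine-CoA plus 12.5 uM BHQ-2-ybbR (50 mM Hepes pH 7.6, 10 mM MgCl2). Rate came from the fluorescence difference over 30 min, ex 525/em 598 nm.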
gsp ag – agonists of gsp mutant (McCune-Albright syndrome); gsp mutant cells, cAMP HTRF, 30 min; control for the full effect not named in the record; Potency, µM (series often up to 76.9 µM), for inactives: top-dose activation (cAMP increase), hits mostly activators; hit rate 0.13% among 340,000; active = well fitted activation curve with a large enough effect; inconclusive = small, poorly fitted or top-dose-only effect, or another doubt; inactive = no such curve, though single readings can be large or run the other way; cell line not stated here;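 also: phosphodiesterase inhibitor Ro 20-1724 added with compounds to block cAMP breakdown; potency is read from the fitted curve at half-maximal effect; nearly all actives have a fitted effect of over 60% in size; about a fifth of the inactives were tested at one dose only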
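Cells stably selected in G418 were plated at 2000/well, grown 16-24 hr, then given compounds in DMSO with the PDE inhibitor […] (300 uM solution added) for 30 min at 37C; cAMP was read by HTRF.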
D2 PAM – potentiates the human D2 dopamine receptor allosterically; P14416; DiscoveRx D2 beta-arrestin cells, luminescence, 90 min; 100% = 57 uM dopamine signal; potentiation, % (concentration not given with the values); hit rate 0.23% among 360,000; AID 624464; active = potentiation of 50% or more; inconclusive = 30% to 50%; inactive = 30% or less;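 also: compound concentration not given in the record; tested on top of an EC20 dose of dopamine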
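D2 cells co-treated with compound plus 50 nM dopamine (EC20) for 90 min at 37 deg C to detect potentiation. Beta-arrestin recruitment was read as enzyme-fragment luminescence after 1 h at ambient temperature. Full response was set by 57 uM dopamine.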
gsp antag – antagonists of gsp mutant (McCune-Albright syndrome); AID 624288; Potency, µM (series often up to 76.9 µM), for inactives: at the highest dose activity change, negative = inhibition, actives largely listed as inhibitors; hit rate 0.4% among 340,000; gsp-mutant cells, cAMP HTRF, 30 min; control for the full effect not named in the record; active = falling curve of any shape with a large fitted effect; inconclusive = falling curve, mostly with a smaller effect; inactive = flat or rising curve; cell line not stated here;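 also: intracellular cAMP measured with PDE inhibitor Ro 20-1724 present during compound exposure; potency is read from the fitted curve at half-maximal effect; % is scaled to controls: 0 for no effect and ±100 for the full control effect; nearly all actives have a fitted effect of over 65% in size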
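Cells, 2000/well, grown 16–24 h in DMEM 10% FBS with 0.5 mg/ml G418, then compounds plus […] (300 uM addition stock), 30 min at 37C. cAMP read by HTRF (cAMP-d2 and anti-cAMP antibody-K in lysis buffer) after 30 min RT.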
Menin-MLL FL inh – inhibitors of human menin-MLL interaction, wild-type MLL peptide | Fluorescence polarization, fluorescein-MLL peptide displacement from menin | FP activity change, % at 61.4 µM | 290,000 tested, under 10 active | AID 1766; inconclusive = falling polarisation curve, or a change in total fluorescence; inactive = total fluorescence flat and polarisation flat or rising; no compound was filed as active; the % refers to the polarisation; negative = inhibition;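 also: % of control where 0% means no effect; inhibitors lower the polarisation; unlabelled MLL peptide was the positive control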
TRPV1 PAM – enhances activation of the human vanilloid receptor TRPV1 | Q8NER1 | TRPV1-expressing cells, Fluo-8 calcium influx, capsaicin EC20 potentiation; host cell line not named in the record; control for the full effect not named in the record | potentiation, % at 8.33 µM | hit rate 0.02% among 320,000; active means potentiation above 80%; inconclusive means 30% to 80%; inactive means below 30%; also: 0% is about no effect
Target sequence (Q8NER1 whole entry, looked up): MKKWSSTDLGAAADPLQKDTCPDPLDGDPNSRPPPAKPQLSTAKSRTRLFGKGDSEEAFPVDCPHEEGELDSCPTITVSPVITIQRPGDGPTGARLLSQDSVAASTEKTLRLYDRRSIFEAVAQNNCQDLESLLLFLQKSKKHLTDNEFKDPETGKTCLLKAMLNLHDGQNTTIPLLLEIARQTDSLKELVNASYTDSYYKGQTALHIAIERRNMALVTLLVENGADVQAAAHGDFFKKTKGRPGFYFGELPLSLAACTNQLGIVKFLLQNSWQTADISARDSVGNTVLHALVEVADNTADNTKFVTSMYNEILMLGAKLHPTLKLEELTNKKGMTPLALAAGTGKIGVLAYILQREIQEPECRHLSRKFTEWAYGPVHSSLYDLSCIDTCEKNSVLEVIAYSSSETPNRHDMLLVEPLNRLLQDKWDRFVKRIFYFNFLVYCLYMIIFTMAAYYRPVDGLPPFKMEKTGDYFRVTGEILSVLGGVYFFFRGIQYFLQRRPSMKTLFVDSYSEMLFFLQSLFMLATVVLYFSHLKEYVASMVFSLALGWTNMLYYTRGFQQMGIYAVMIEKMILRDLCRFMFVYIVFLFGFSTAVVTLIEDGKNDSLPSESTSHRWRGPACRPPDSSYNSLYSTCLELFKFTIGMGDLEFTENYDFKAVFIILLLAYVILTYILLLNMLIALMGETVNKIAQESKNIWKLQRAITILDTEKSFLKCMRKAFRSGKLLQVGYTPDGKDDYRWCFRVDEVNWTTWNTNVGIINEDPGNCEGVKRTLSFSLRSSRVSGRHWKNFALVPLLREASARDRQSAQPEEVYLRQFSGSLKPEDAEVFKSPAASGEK
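Fluo-8 calcium influx in TRPV1-expressing cells, kinetic read (ex 480/em 520 nm). Compound added and read 3 min for agonist activity, followed by capsaicin at EC20 final and 2 min further read for enhancement.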
ClpP mod – qHTS Assay for Activators of ClpP. purified B. subtilis ClpP, FRET peptide cleavage, 20 min. Potency, µM (series often up to 57.5 µM), for the others: at the highest dose activity change, negative = active. hit rate 1.9% among 340,000. AID 651965, 2013; active = well fitted falling curve with a large enough effect; inconclusive = small, poorly fitted or top-dose-only effect; inactive = no such curve, though single readings can be large or run the other way; also: potency is read from the fitted curve at half-maximal effect; the source files actives as falling curves though it sought activators and does not explain the sign; nearly all actives have a fitted effect of over 65% in size; many hits overshoot -100%
Target sequence (P80244 whole entry, looked up): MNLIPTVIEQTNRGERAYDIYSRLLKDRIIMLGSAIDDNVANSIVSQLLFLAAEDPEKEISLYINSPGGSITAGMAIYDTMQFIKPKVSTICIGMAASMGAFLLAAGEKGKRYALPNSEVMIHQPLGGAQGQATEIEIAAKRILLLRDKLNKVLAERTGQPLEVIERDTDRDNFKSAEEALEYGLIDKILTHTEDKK
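Purified B. subtilis ClpP, 10 microg/mL final in Tris/HCl pH8 with KCl, BSA, glycerol and Tween-20, cleaved an Abz/nitrotyrosine-quenched decapeptide. Fluorescence (ex 320, em 430) was read at 0 and 20 min at room temperature. Delta was normalized to 5.8 microM ADEP and DMSO/no-enzyme controls.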
The depositor's hits bear a star; ? = inconclusive; · = no result given; & = joins results of further samples; [ ] = remark or other dose. An excerpt, so the mix of outcomes need not match the whole.

smiles	Sfp PPTase inh	gsp ag	D2 PAM	gsp antag	Menin-MLL FL inh	TRPV1 PAM	ClpP mod
CC(=O)O[C@]1(c2ccccc2)CCN(C)[C@H]2CCCC[C@@H]21	-8%	0%	-1	4%	1.1	-12	0.8%
O=c1[nH]c(=S)n(CCC2=CCCCC2)c(O)c1C=NC1CCN(Cc2ccccc2)CC1	-1%	26%	-12	5%	2.8	-8	-3.0%
Cc1cc(C)cc(NC(=S)NC2CC3CCC(C2)N3Cc2ccco2)c1 (centres undefined)	11%	14%	-23	3%	?	12	-0.5%
COc1ccc(S(=O)(=O)N2Cc3cnnn3-c3ccccc3C2C#N)cc1 (centres undefined)	·	·	-12	-2%	·	·	-0.3%
COc1ccc(C(CNC(=O)Cc2ccc(Cl)c(Cl)c2)N(C)C)cc1 (centres undefined)	14%	3%[15.4 µM]	-15	18%	0.6	-1	0.9%
CN1CCN(CC(=O)Nc2ccc([N+](=O)[O-])cc2C(=O)c2ccccc2)CC1	18%	24%	-4	-1%	-6.6	-3	·
CCCCSC1=NN1c1nc(N)nc(C)c1CC	13%	9%	-9	3%	0.1	-14	-3.9%
C[C@@H]1CN([C@H](C)CO)C(=O)CCCn2cc(nn2)CO[C@H]1CN(C)C(=O)Oc1cccc2ccccc12	·	-36%[inhibitor]	9	·	·	·	0.5%
COC(=O)C1=C(c2ccccc2)C[C@@H]2CC[C@H]1N2C(=O)N1CCCCC1	·	-8%	-9	-2%	·	·	3.0%
c1ccc2c(c1)Sc1ccccc1N2CC1CN2CCC1CC2 (centres undefined)	-6%	·	-29	0%	0.6	4	-5.2%
COc1cc(OC)c(OC)cc1CNC(C)C(O)c1ccccc1 (centres undefined)	4%	20%	-18	6%	-0.2	8	-2.8%
CC1(C(=O)O)CC12c1ccccc1-c1ccccc12 (centres undefined)	·	-19%	·	-6%	·	·	0.7%
CSc1nnc([C@@H](N)Cc2c[nH]c3ccccc23)o1	5%	-6%[15.4 µM]	-1	3%	-2.2	3	-1.1%
Cc1ccc(OCC(=O)NCCN2CCN(C(=O)COc3ccc(C)cc3)CC2)cc1	14%	-20%	-10	1%	-0.2	-5	-0.4%
CCCCn1c(O)c(/C=C/C=Nc2ccccc2)c(=O)[nH]c1=O	-2%	-37%[inhibitor]	0	-9%	?	7	1.5%
O=C1C2CCN(CC2)C1Cc1ccc(OCc2ccccc2)cc1 (centres undefined)	17%	-50%[15.4 µM]	2	21%	1.4	-21	·
Fc1ccc(CNCCc2ccccc2)cc1	-20%	-71%[inhibitor]	-34	13%	-3.3	-5	-2.0%
COC(=O)C1=C(c2cccc(OCc3ccccc3)c2)C[C@@H]2CC[C@H]1N2C(=O)NCc1ccc(OC)cc1	·	10%	-5	-17%	·	12	-0.8%
CCCCOC(=O)n1c(=O)oc2ccccc21	11%	-37%[inhibitor]	-24	6%	1.5	1	1.4%
CC(=O)Nc1ccccc1C(=O)OCC(=O)Nc1ncccn1	4%	-9%[15.4 µM]	-1	5%	-2.4	2	·
CN(C)c1ccc(P(=O)(Nc2ccc([N+](=O)[O-])cc2)N2CCOCC2)c(NC(=O)c2cccs2)c1 (centres undefined)	-12%	0%	-7	-4%	-0.4	-7	?
CCN(CC(=O)Nc1ccc(C#N)c(Cl)c1)CC(=O)NC1CCS(=O)(=O)C1 (centres undefined)	·	13%	4	-11%	·	6	-3.1%
COc1ccccc1N1CCN(Cc2ccc(Cl)cc2Cl)CC1	?	?	-35	-7%	-0.1	-7	-8.5%
CN1CCN(C(=O)COc2ccc(Oc3ccccc3)cc2)CC1	-2%	-27%[15.4 µM]	-1	·	8.0	-14	·
COc1ccccc1OCCCn1cc(C=O)c2ccccc21	-13%	-6%[15.4 µM]	-1	-26%	-0.6	-10	·
COC(=O)C1=C(c2cccc(OCc3ccccc3)c2)C[C@@H]2CC[C@H]1N2C(=O)NCc1ccccc1C(F)(F)F	·	-1%	-13	-1%	·	9	-5.0%
C[N+](C)(C)CC(=O)Nc1ccc(Cl)cc1C(=O)c1ccccc1	0%	3%[15.4 µM]	1	·	3.1	2	·
CC(=O)Nc1ccc(OC(=O)N(C)c2ccc(C)cc2)cc1	10%	-15%	-5	6%	-3.3	0	-0.1%
CC(O)(CS(=O)(=O)c1cccc(C(F)(F)F)c1)C(=O)Nc1cccc(C(F)(F)F)c1 (centres undefined)	24%	40%	-14	-15%	2.9	·	0.3%
CCC(C)c1ccc(N2C(=O)NC(=O)/C(=C/c3cccn3CCOc3ccc(C)cc3)C2=O)cc1 (centres undefined)	12%	?	-5	-4%	6.7	-6	-0.5%
O=C(Cn1cnc2ccccc2c1=O)NCc1ccco1	19%	-43%[inhibitor]	-14	10%	5.2	5	2.4%
CCC1(CC)C(=O)N(Cc2ccccc2)C(=O)N(Cc2ccccc2)C1=O	1%	-1%	-5	-12%	-2.0	5	0.1%
Cc1ccc(NC(=O)CN2C(=O)CN=C(c3ccccc3)c3cc(Cl)ccc32)cc1	-1%	-16%	-6	?	-0.6	-3	-3.2%
C/C=C(\C)C(=O)N[C@@H](c1ccccc1)[C@@H](O)C(=O)O[C@H]1C[C@@]2(O)[C@@H](OC(=O)c3ccccc3)C3[C@](C)(C(=O)[C@H](OC(C)=O)C(=C1C)C2(C)C)[C@H](O)C[C@H]1OC[C@@]31OC(C)=O (some centres undefined)	11%	·	-46	-9%	0.8	12	1.8%
C[C@]12CC[C@@H](O)C[C@@H]1CC[C@@H]1[C@@H]2CC[C@]2(C)[C@@H](O)CC[C@@H]12	-2%	·	-24	-10%	5.3	-6	3.3%
Cc1cccc(N=Nc2ccc(N(C)C)cc2)c1	-6%	2%	-3	-19%	2.4	2	·
COc1ccc2[nH]c3c(c2c1)CCNC3	·	·	-70	0%	3.2	-19	-13%
COC1CCC(OC2CC(C3(C)CCC4(CC(O)C(C)C(C(C)/C=C(\C)C(=O)C(C)CC(C)C(=O)O)O4)O3)OC3(OC(C4OC(O)(CO)C(C)CC4C)CC3C)C2C)OC1C (centres undefined)	·	-2%	·	-8%	·	·	-1.7%
Cc1cc(/C=C2\C(=O)NC(=O)N(c3ccc(Br)cc3)C2=O)c(C)n1C	-2%	?	-3	5%	?	5	1.8%
C/C(=N\NC(N)=O)c1c(O)n(C)c(=O)n(C)c1=O	56µM*	-77%[inhibitor]	-8	4%	5.5	12	-1.8%
CCCCc1nc2ccccc2c(=O)n1-c1ccccc1O	-1%	?	4	6%	2.5	-5	-2.0%
O=C(c1sc2ccccc2c1Cl)N1CCC2(CC1)OCCO2	15%	-5%	5	5%	-3.1	-7	1.3%
CC(C)OP(=O)(OC(C)C)C(O)c1cccnc1 (centres undefined)	20%	18%[15.4 µM]	11	13%	5.3	1	-2.1%
Cc1nn(Cc2ccccc2)c(Cl)c1C(=O)OCC(=O)NCC1CCCO1 (centres undefined)	3%	?	11	-2%	0.5	15	-0.2%
CCC(C)n1c(O)c(C=Nc2cccc(C(F)(F)F)c2)c(=O)[nH]c1=S (centres undefined)	-19%	-35%[inhibitor]	3	-9%	6.8	26	-4.3%
COc1ccc(-n2c(O)c(C=NCCN3CCN(C(C)=O)CC3)c(=O)[nH]c2=S)cc1	-8%	?	7	5%	1.6	-5	·
CC1=NN(c2ccccc2)C(=O)/C1=C/c1c(O)[nH]c(=O)[nH]c1=O	4%	10%[15.4 µM]	-16	4%	-1.3	4	·
CC1CCC(C(=O)NC(C(=O)N2CCC3(CC2)OCCO3)C(C)C)CC1 (centres undefined)	4%	1%	-7	10%	3.2	11	-0.3%
O=[N+]([O-])c1ccc(NCc2ccc(Cl)cc2)c2ccncc12	-7%	-12%[15.4 µM]	-1	13%	-15	13	·
CC(C)(C)n1cc(C(=O)c2ccc3ccccc3c2O)cn1	-21%	-21%	-2	-27%	2.9	0	·
COc1ccc(C(=O)C2CCCN(Cc3ccsc3)C2)cc1OC (centres undefined)	-9%	?	-18	1%	1.2	-6	·
CCCCn1c(O)c(/C=N/NC(=O)c2ccncc2)c(=O)[nH]c1=O	-5%	15%[15.4 µM]	-14	-2%	?	-12	·
C=Cn1ccnc1P(=S)(c1cc(N(CC)CC)ns1)c1nccn1C=C	-2%	20%	-16	-10%	2.0	30	-0.4%
COC(=O)C1=C(c2cccc(OC)c2OC)C[C@@H]2CC[C@H]1N2C(=O)NCc1ccco1	·	-8%	-5	0%	·	·	-0.2%
O=C(O)C1C(C(=O)O)C2(Cl)C(Cl)=C(Cl)C1(Cl)C2(Cl)Cl (centres undefined)	·	·	-4	-2%	·	-4	-0.8%
COC(=O)C1=C(c2cccc(C#N)c2)C[C@@H]2CC[C@H]1N2C(=O)N1CCC(C)CC1	·	-178%[inhibitor]	-2	-5%	·	-12	0.7%
COc1ccc2[nH]c3c(c2c1)CCN[C@H]3C	0%	0%	-8	-1%	11	7	·
CCN(CC)CCN=Cc1c(O)n(C2CCCCCC2)c(=O)[nH]c1=O	11%	-14%	-9	-14%[15.4 µM]	1.0	-5	0.8%
O=C(CCS(=O)NCc1ccccc1)NCc1ccccc1 (centres undefined)	89µM*	·	·	·	-0.1	6	·
CCCCC1(CCCC)C(=O)NC(=Nc2cccc(C)c2)NC1=O	10%	-41%[inhibitor]	-14	-30%	6.8	1	-2.2%

Continuation:
smiles	Sfp PPTase inh	gsp ag	D2 PAM	gsp antag	Menin-MLL FL inh	TRPV1 PAM	ClpP mod
CN(CCCCC(=O)/C=N/O)Cc1ccccc1 (tested in a mixture with another compound)	4%	-36%[inhibitor]	-16	3%	-0.1	-14	-2.1%
COC(=O)C1=C(c2ccc(OC(F)(F)F)cc2)C[C@@H]2CC[C@H]1N2C(=O)NC1CCCCC1	·	·	-19	-15%	·	-15	-0.6%
CCOc1cc(C=C2C(=O)NC(=O)NC2=O)ccc1OCC(=O)N1CCOCC1	?	-3%[15.4 µM]	-14	1%	·	20	14%
Cc1nn(-c2ccccc2)c2c1C(c1ccc(F)cc1F)C(C#N)=C(N)O2 (centres undefined)	3%	-23%	-1	?	3.7	1	0.7%
O=C(O)[C@@H]1C[C@H]1[C@@H](NP(=O)(c1ccccc1)c1ccccc1)c1ccccc1	9%&23%	·	-24	3%	1.7&-4.5	3	-1.3%
